PV pol inh – poliovirus RNA polymerase inhibition. P03300. poliovirus polymerase elongation, fluorescence polarization; hits give low values. % elongation, % (compound at 16.7 µg/mL). hit rate 0.66% among 150,000. AID 588519; in the data active = % elongation below about 90%; also: some results filed as inactive read as strong as hits
Mtb MbtI inh – blocks the Mycobacterium tuberculosis siderophore enzyme MbtI; P9WFX0; purified MbtI enzyme, fluorescence intensity read-out; inhibition, %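 (about 17 µg/mL by stock and volumes)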; AID 493033; hit rate 0.89% among 100,000;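 active = above 50% in both replicates, above 80% if mildly self-fluorescent; inactive = the rest, strongly fluorescent compounds included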;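 also: 0% = mean of negative and 100% = mean of positive controls; one replicate is shown; some compounds called inactive have numbers as strong as hits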
Target sequence (P9WFX0 whole entry, looked up): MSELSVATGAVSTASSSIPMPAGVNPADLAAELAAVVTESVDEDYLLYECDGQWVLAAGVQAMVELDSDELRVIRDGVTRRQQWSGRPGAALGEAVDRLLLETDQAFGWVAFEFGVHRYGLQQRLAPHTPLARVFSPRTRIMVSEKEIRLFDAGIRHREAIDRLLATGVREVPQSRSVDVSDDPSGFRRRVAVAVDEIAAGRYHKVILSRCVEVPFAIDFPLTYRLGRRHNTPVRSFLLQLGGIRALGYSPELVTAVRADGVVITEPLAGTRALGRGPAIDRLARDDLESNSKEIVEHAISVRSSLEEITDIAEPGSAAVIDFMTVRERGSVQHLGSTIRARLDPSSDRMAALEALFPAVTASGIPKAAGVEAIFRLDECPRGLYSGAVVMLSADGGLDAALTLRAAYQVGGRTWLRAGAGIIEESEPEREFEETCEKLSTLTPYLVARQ
Mtb MenB inh – blocks the Mycobacterium tuberculosis MenB enzyme; P9WNP5; MenB enzyme assay, absorbance read-out; some hits fall short of the stated cut; inhibition, %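 (about 12 µg/mL by stock and volumes)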; hit rate 0.43% among 100,000; AID 540299;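 active = mean of two replicates above 30%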;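 also: 0% = no compound and 100% = wells with inactive enzyme; the first replicate is given; strong numbers were not always called active; inactives centre near -10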
Target sequence (P9WNP5 whole entry, looked up): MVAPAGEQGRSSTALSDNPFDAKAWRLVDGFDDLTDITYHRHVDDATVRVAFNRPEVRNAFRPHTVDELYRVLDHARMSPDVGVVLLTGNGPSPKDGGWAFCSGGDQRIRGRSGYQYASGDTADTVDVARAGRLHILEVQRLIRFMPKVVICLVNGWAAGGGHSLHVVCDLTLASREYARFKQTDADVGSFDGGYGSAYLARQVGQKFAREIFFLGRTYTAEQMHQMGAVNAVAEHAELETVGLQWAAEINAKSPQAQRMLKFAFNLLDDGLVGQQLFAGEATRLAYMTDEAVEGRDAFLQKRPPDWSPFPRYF
PV pol inh intensity – further read-out of PV pol inh, marked with its call; % elongation; measured here: total intensity read-out; formula for this scale not given here;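 total fluorescence in place of polarization; lower means less elongation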
* marks the source's active call; other numbers are inactive results; . = no result given; & = joins results of further samples.

Results follow in this order: PV pol inh | PV pol inh intensity | Mtb MbtI inh | Mtb MenB inh
O=C(CC(Sc1ccc(Cl)cc1)c1ccc(Cl)cc1)C1CC1 (stereo not given)
  104.0 | 112.0 | . | -24.3
COc1cccc(NC(=O)COc2ncnc3ccccc23)c1
  101.0 | 103.0 | 1.6 | -10.8
Cc1ccc2nc(SCC(N)=O)oc2c1
  101.0 | 99.0 | 3.2 | 32.7*
CCOc1ccccc1N1CCN(C(=O)[C@H](C)NC(N)=O)CC1
  97.0 | 103.0 | -3.4 | -20.2
O=C(COC(=O)c1ccco1)NC1CCCCC1
  105.0 | 109.0 | . | -9.9
O=S(=O)(NCc1cccs1)c1ccc(-c2cc(C(F)(F)F)no2)s1
  104.0 | 105.0 | -7.9 | -48.1
COCC(C)NC(=S)N1CCN(c2ccccc2Cl)CC1 (stereo not given)
  105.0 | 107.0 | -3.2 | -9.7
O=C1OCC2=C1C(c1ccc3c(c1)OCO3)CC(=O)N2c1ccccc1 (stereo not given)
  105.0 | 102.0 | -0.2 | -7.6
CC1CCCCC1NC(=O)c1cnn2c(C(F)(F)F)cc(-c3ccccc3)nc12 (stereo not given)
  103.0 | 100.0 | 9.1 | -12.3
CCc1ccc(C2CC(c3ccccc3)=NN2C(=O)CCCC(=O)O)cc1 (stereo not given)
  98.0 | 104.0 | -5.5 | -31.5
NNc1nc(N2CCOCC2)nc(N2CCOCC2)n1
  104.0 | 102.0 | -5.0 | -41.7
COc1cccc(CN(C)S(=O)(=O)c2ccc(C)cc2)c1
  103.0 | 108.0 | -7.2 | -21.7
C=CCNC(=O)c1cccc(OC)c1
  102.0 | 104.0 | 6.8 | -34.4
O=c1ccc2cc(N=Cc3cc(Cl)cc(Cl)c3O)ccc2o1
  107.0 | 115.0 | -7.9 | -23.6
Oc1ccc(C2(c3ccc(O)cc3)CCCCC2)cc1
  101.0 | 106.0 | -1.4 | 2.9
CCOc1ccc(N=Nc2c(C)n[nH]c2C)cc1
  103.0 | 101.0 | 3.4 | -35.6
CCn1nc(C(=O)Nc2ccc(S(=O)(=O)Nc3ncccn3)cc2)c2ccccc2c1=O
  102.0 | 104.0 | -5.8 | -24.4
c1ccc(-n2nnnc2Sc2ncnc3ccccc23)cc1
  100.0 | 118.0 | -4.3 | -8.4
COc1ccc(CCNC(=O)CSc2ccc(-c3ccco3)nn2)cc1
  103.0 | 107.0 | -0.2 | -22.0
COc1ccc(C(=O)NC(=S)Nc2ccc3[nH]c(=O)[nH]c3c2)cc1OC
  100.0 | 105.0 | 11.4 | -30.3

Additional records:
Results follow in this order: PV pol inh | PV pol inh intensity | Mtb MbtI inh | Mtb MenB inh
Cc1cc(C)nc(/N=C(\N)N2CCc3ccccc32)n1
  101.0 | 102.0 | 6.9 | 22.3
CCN(CC)S(=O)(=O)c1ccc(C(=O)Nc2ccc3c(c2)OC(C)(C)O3)cc1
  102.0 | 105.0 | 1.8 | -1.2
COCC(C)NC(=O)C1=CC(c2ccc(C)cc2)=NS(=O)(=O)N1C (stereo not given)
  104.0 | 98.0 | 17.9 | -39.1
Nc1nc2sc3c(c2c(=O)s1)CCCC3
  100.0 | 100.0 | 12.9 | -43.9
COC(=O)CC(C(=O)Nc1ccc(C)cc1Br)N1CCN(C)CC1 (stereo not given)
  . | . | 1.1 | -16.6
Cc1cc(C(=O)CSc2nc3ccccc3c(=O)n2CCO)c(C)n1C(C)C
  . | . | 4.6 | -21.6
CC(C)N(C(=O)CSc1nnnn1Cc1ccccc1)C(C)C
  100.0 | 101.0 | -0.6 | -25.9
CC(C)c1cc(=O)[nH]c(SCC(=O)O)n1
  97.0 | 101.0 | 1.1 | -42.4
O=C(CCCc1ccccc1)N1CCCCCCC1
  102.0 | 104.0 | -11.7 | 0.1
COC(=O)c1ccc2nsnc2c1
  99.0 | 99.0 | -7.3 | -10.4
Cc1nnc(SCc2ccc(C(=O)N3CCOCC3)cc2)s1
  103.0 | 108.0 | . | -1.7
Cc1ccccc1NC(=O)CN1CCCC1
  103.0 | 103.0 | -6.2 | -6.6
C/C(=C\c1ccccc1)C(=O)NCCCn1ccnc1
  101.0 | 101.0 | -15.2 | -26.9
CN1C(=S)SC(c2ccccc2)N(C)C1c1ccccc1 (stereo not given)
  105.0 | 108.0 | -5.2 | -45.7
Cc1nc2ccccc2c(=O)n1-c1cccc(NC(=O)c2ccc3c(c2)OCO3)c1
  105.0 | 101.0 | 10.6 | -9.8
O=C1c2ccccc2-c2onc3ccc(Oc4c(F)c(F)c(F)c(F)c4F)c1c23
  102.0 | 112.0 | -5.5 | 2.7
CC1=CC(C)=NC2Nc3c(C)cc(C)cc3C(=N)C12 (stereo not given)
  86.0* | 71.0* | 51.7 | -278.9
COC(C(=O)Nc1ccc2c(c1)OCCO2)c1ccccc1 (stereo not given)
  104.0 | 101.0 | -0.5 | -28.4
COC(=O)CSc1nnc2c(n1)[nH]c1ccccc12
  . | . | 8.9 | -16.4
CS(=O)(=O)N1CCN(C(=O)CCCC(=O)O)CC1
  101.0 | 102.0 | 11.9 | 5.6

New compounds follow.
Results follow in this order: PV pol inh | PV pol inh intensity | Mtb MbtI inh | Mtb MenB inh
CC(C)C(NC(=O)c1ccc2c(=O)n3c(nc2c1)CCC3)c1ccc2c(c1)OCCCO2 (stereo not given)
  100.0 | 100.0 | 7.7 | 11.8
CC1CCN(S(=O)(=O)Cc2ccccc2)CC1
  104.0 | 101.0 | . | 4.0
O=C(CSCc1ccco1)NC1CCCC1
  100.0 | 106.0 | -2.4 | .
Cn1c(-c2cccnc2)n[nH]c1=S
  100.0 | 102.0 | 39.5 | 20.8
CN(C)c1ccc(C2N(C(=O)C(F)(F)F)CCN2S(=O)(=O)c2ccccc2)cc1 (stereo not given)
  101.0 | 102.0 | 0.9 | -11.2
CCOC(=O)c1sc(NC(=O)CC)c(C#N)c1C
  104.0 | 106.0 | 0.3 | -4.7
O=C(CN1CCCCC1)Nc1ccccc1
  102.0 | 104.0 | -13.4 | -8.9
CC(C)(C)n1nc(-c2ccc(Cl)cc2)c2c(N)ncnc21
  101.0&99.0 | 101.0&100.0 | -19.1 | -2.6
O=c1[nH]nc(C(F)(F)F)c2nnn(Cc3ccccc3Cl)c12
  101.0 | 103.0 | -23.9 | 4.7
Cc1[nH]c2ccc(C(=O)OCC#N)cc2c1C
  103.0 | 102.0 | -46.5 | 3.5
CCCn1c(=O)n(-c2ccccc2)c(=O)c2c3c(sc21)CN(C(C)=O)CC3
  101.0 | 103.0 | -14.8 | -6.4
O=C(Nc1ccc(Br)cc1)C(Cc1ccccc1)NS(=O)(=O)c1cccs1 (stereo not given)
  101.0 | 104.0 | -1.1 | -26.0
C/C(O)=C(\C#N)P(C)(=O)OC(C)C (stereo not given)
  98.0 | 103.0 | 1.2 | 40.7*
CC1Cc2ccccc2N1S(=O)(=O)c1cccc(C(=O)N2CC(=O)Nc3ccccc32)c1 (stereo not given)
  . | . | 6.4 | -31.8
Cc1noc(C)c1CSc1ncccc1C(=O)N(C)Cc1c(F)cccc1Cl
  98.0 | 92.0 | 17.4 | -33.3
CN(C(=O)CSc1nc2ncccc2o1)c1ccccc1
  101.0 | 104.0 | -22.1 | 7.7
Cc1nc2c(o1)NC(N)=C(C#N)C2c1cn[nH]c1C (stereo not given)
  105.0 | 108.0 | . | -3.8
O=C(NC1CC(=O)N(c2ccc3c(c2)OCCO3)C1)c1ccc2ccccc2c1 (stereo not given)
  102.0 | 106.0 | 9.9 | -30.7
CSc1nc2ccc(NC(=O)CNC(=O)c3cccs3)cc2s1
  109.0 | 101.0 | 1.6 | -10.1
CCOc1cc(C2C(C(=O)N3CCOCC3)=C(C)NC3=C2C(=O)CC(C)(C)C3)cc(Br)c1OCC (stereo not given)
  102.0 | 102.0 | 124.3 | -11.6

(more compounds)
Results follow in this order: PV pol inh | PV pol inh intensity | Mtb MbtI inh | Mtb MenB inh
O=C(O)c1cccc(-n2ncc(Cl)c(Cl)c2=O)c1
  101.0 | 97.0 | 2.5 | -10.3
Cc1noc(C)c1CNc1ccccc1
  100.0 | 94.0 | 21.4 | -0.1
CCC(C)NC(=O)c1ccccc1NC(=O)Nc1ccccc1 (stereo not given)
  100.0 | 101.0 | -28.6 | -3.1
CSC(=NC#N)N1CCC(C(=O)c2ccccc2)CC1
  92.0 | 97.0 | -10.2 | -12.0
Cc1cc(C(=O)COn2nnc3ccc(Cl)cc32)c(C)n1Cc1cccs1
  101.0 | 104.0 | 5.1 | -15.9
CCSc1nnc(COc2ccccc2)n1CC
  104.0 | 100.0 | -12.9 | -0.7
COC(=O)C(C)Oc1nc(C)c(Br)c(OC)n1 (stereo not given)
  103.0 | 96.0 | . | -18.1
Cc1ccc(Cn2c(=O)cc(C(=O)NCc3cccs3)c3ccccc32)cc1
  103.0 | 102.0 | 14.8 | -21.8
OCCN(c1ccccc1)c1ncnc2onc(-c3ccc(F)cc3)c12
  99.0 | 95.0 | 0.1 | -3.8
O=C(NCCCN1CCOCC1)c1ccccc1
  106.0 | 108.0 | . | -0.6
Cc1ccc(CNC(=O)NCc2cccc(CNC(=O)NCc3ccc(C)n3C)c2)n1C
  102.0 | 94.0 | 6.2 | -13.1
O=C(NC1CCCC1)C1CCC(Cn2c(=O)c3ccccc3n(Cc3cc(=O)n4ccccc4n3)c2=O)CC1 (stereo not given)
  103.0 | 99.0 | -0.4 | 1.3
Cc1cn2c(nc1=O)O[C@H]1C[C@H]2O[C@@H]1COC(=O)c1ccccc1
  101.0 | 102.0 | -1.6 | -0.6
Cc1coc(NC(=O)CSc2nc(-c3ccc(Cl)cc3)cc(C(F)(F)F)c2C#N)n1
  99.0 | 104.0 | 47.7 | -8.6
NC(=O)/C=C/c1cccc(C(F)(F)F)c1
  105.0 | 109.0 | -8.3 | .
O=C(COc1ccccc1F)Nc1ncnc2nc[nH]c12
  101.0 | 109.0 | -7.8 | -26.4
O=C1c2ccccc2CN1CCSC(=S)N1CCCC1
  101.0 | 102.0 | -3.7 | -40.6
CC(=O)c1c(CC(=O)O)[nH]n(-c2nc3ccccc3s2)c1=O
  101.0 | 101.0 | 59.7* | -16.2
CCOc1cc(S(=O)(=O)NCCc2ccc(OC)c(OC)c2)c(OCC)cc1-n1cnnn1
  103.0 | 104.0 | -17.9 | 44.3*
O=C(O)CCC(=O)Nc1ccccc1C(=O)NC1CC1
  98.0 | 98.0 | -2.0 | -14.4

Compound profiles, from the list above.
`O=C(COc1ccccc1F)Nc1ncnc2nc[nH]c12` is entered as PV pol inh: 101.0; PV pol inh intensity: 109.0; Mtb MbtI inh: -7.8; Mtb MenB inh: -26.4
`CCOc1cc(S(=O)(=O)NCCc2ccc(OC)c(OC)c2)c(OCC)cc1-n1cnnn1` is entered as PV pol inh: 103.0; PV pol inh intensity: 104.0; Mtb MbtI inh: -17.9; Mtb MenB inh: 44.3*

The listing picks up with the two entries that preceded the break.
Results follow in this order: PV pol inh | PV pol inh intensity | Mtb MbtI inh | Mtb MenB inh
CCOc1cc(S(=O)(=O)NCCc2ccc(OC)c(OC)c2)c(OCC)cc1-n1cnnn1
  103.0 | 104.0 | -17.9 | 44.3*
O=C(O)CCC(=O)Nc1ccccc1C(=O)NC1CC1
  98.0 | 98.0 | -2.0 | -14.4
C=CCN(c1ccccc1)c1nc(C(=O)OCC)nc2ccccc12
  100.0 | 104.0 | 5.5 | -24.6
CC(CN=CC1=C(O)CC(C)(C)CC1=O)N=CC1=C(O)CC(C)(C)CC1=O (stereo not given)
  101.0 | 101.0 | -1.5 | -4.7
Cc1nc(NCc2ccccn2)c2ccccc2n1
  102.0 | 113.0 | -13.3 | .
CN(C)c1ccc(/C=N/N2C(=O)c3ccccc3C2=O)cc1
  103.0 | 102.0 | -4.8 | 0.0
Cc1ccnc(SCc2cc(=O)c(OC(=O)c3ccco3)co2)n1
  106.0 | 102.0 | 1.2 | -8.8
COc1cc(N)c(Cc2nccc3cc(OC)c(OC)cc23)cc1OC
  103.0 | 109.0 | 7.4 | -30.6
O=C(NC(=S)Nc1cccc2c(O)cccc12)C1CC1
  95.0 | 103.0 | 17.2 | -46.5
C=CCNC(=O)c1cc(-c2ccc(C)c(C)c2)nc2ccccc12
  102.0 | 103.0 | 78.3 | -75.5
Cc1ccc2c(c1)/C(=C/c1ccncc1)c1cc3ccccc3nc1-2
  103.0 | 101.0 | . | -13.4
O=C(Cn1c2c(c(=O)n3ncnc13)CCC2)N/N=C/c1cccnc1
  101.0 | 102.0 | 4.2 | 7.0
CC1CC(C)CN(CC(=O)Nc2cccnc2Cl)C1 (stereo not given)
  100.0 | 103.0 | -4.8 | -26.0
Cc1cc2ncn(C(=O)N3CCCCC3)c2cc1C
  103.0 | 103.0 | -7.2 | -20.4
Cc1cccc(CN2C(=O)/C(=C\c3ccc(C(=O)NCc4cccnc4)cc3)Sc3ccccc32)c1
  103.0 | 107.0 | 4.7 | -52.7
Cc1ccc(C(=O)COC(=O)c2ccc(-n3cccn3)cc2)s1
  102.0 | 108.0 | -9.8 | -26.0
